Bioassay records (PubChem)
CDC25B CDK2 inh: human CDC25B-CDK2/CyclinA binding inhibition | HTRF CDC25B-CDK2/CyclinA binding, anti-His/anti-Flag; stronger effect = higher value | 94,000 compounds, 0.72% hits | P30305+P24941 | z-score (test concentration not listed);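 further: score is relative to mean and SD of negative controls; strong numbers were not always called active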
TAR Tat displ: HIV-1 TAR-Tat binding disruption | HIV-1 TAR RNA, Tat peptide displacement FRET; stronger effect = higher value | z-score (no concentration beside the values) | 100,000 compounds, 0.6% hits | AID 1259389;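 further: score is relative to mean and SD of negative controls; some compounds called inactive have numbers as strong as hits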
* = called active by the depositor; · = not tested or not shown.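 How the source made its calls: active means z-score from 3 up in half or more of its runs; inactive means the rest.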

SMILES	CDC25B CDK2 inh	TAR Tat displ
O=C(c1ccc2c(c1)OCCO2)N(Cc1ccccn1)c1nc2c(Cl)cccc2s1	·	0.57
Cc1noc2ncnc(N3CCCC(C(=O)N4CCCCC4)C3)c12 (configuration not stated)	·	0.75
CCN(CC)CCNc1cc(N2CCCC2)c2noc3c2c1C(=O)c1ccccc1-3	-0.38	-1.02
CCC(C(=O)NC1CCCCC1C)n1nc(C)c2sc3ccccc3c2c1=O (configuration not stated)	-1.15	2.85
O=S1(=O)N=C(Nc2ccc(N3CCCCC3)c(Cl)c2)c2ccccc21	0.3	-0.4
O=C1CCCc2[nH]c(=O)c(C(=O)Nc3ccc(Cl)cc3)cc21	-0.66	0.53
CCOc1ccc(NC(=O)Nc2nnc(-c3ccccc3I)s2)cc1	-4.19	·
CCc1cc2c(NCc3cccnc3)ncnc2s1	·	0.65
COc1cccc2c(=O)c(C(=O)O)c[nH]c12	-0.83	0.57
Cc1ccc(C(=O)c2ccc(CC(=O)O)n2C)cc1	·	0.07
O=C1CCCN1c1ccn(-c2ccc(S(=O)(=O)O)cc2)n1	·	1.88
CCCn1cc(S(=O)(=O)c2ccc(F)cc2)c(=O)c2ccccc21	-0.97	0.45
COc1ccc(C2Nc3ccc4ncccc4c3C3=C2C(=O)CCC3)cc1 (configuration not stated)	-1.84	0.61
Cc1cc(C)n(Cc2c(C(=O)NCCc3ccco3)noc2C)n1	·	-0.12
CCN(CC)C(=O)Cn1c(=O)oc2cc(S(=O)(=O)NC3CCCC3)ccc21	0.4	·
O=[N+]([O-])c1c(SCCO)ccc2nsnc12	-0.15	·
Cc1nc(CSc2n[nH]c(C(F)(F)F)n2)cs1	-0.7	·
CCC(=O)Nc1nnc(SCc2nc3ccccc3[nH]c2=O)s1	·	0.35
CCSc1ncc(Cl)c(C(=O)Nc2ccc(F)cc2)n1	-0.92	1.49
Cc1ccc(NS(=O)(=O)c2cc3[nH]c4c(c3cc2C)C(=O)CCC4)c(Br)c1	·	0.76
Cc1ccc2ccc(C(Nc3ccccn3)c3ccc(C)s3)c(O)c2n1 (configuration not stated)	-2.82	·
COc1ccc(-n2nnc(-c3nc(-c4ccncc4)no3)c2N)cc1OC	·	0.19
CC1C(=O)N2CCCc3cc(S(=O)(=O)N4CCN(c5ccccc5F)CC4)cc1c32 (configuration not stated)	·	1.68
CCc1nnc2sc(-c3ccc(OC)c(OC)c3)nn12	-0.17	-0.65
C=CCN(c1ccccc1)S(=O)(=O)c1ccc2c(c1)CC(C)N2C(=O)C1CC1 (configuration not stated)	·	1.06
SMILES	CDC25B CDK2 inh	TAR Tat displ
CS(=O)(=O)n1nc(-c2ccco2)nc1NCc1cccc(Br)c1	-0.68	0.92
O=S(=O)(NCCc1csc2nc(-c3cccs3)nn12)c1ccc(Cl)cc1	·	-1.31
O=C(CSc1nc2c(c(=O)n1CCc1ccccc1)SCC2)NCC1CCCO1 (configuration not stated)	·	0.62
O=c1[nH]c(SCc2ccc(Br)cc2)nc2c1CCC2	0	0.85
Cc1cc(NC(C)c2ccccc2)n2nc(C)c(-c3ccc(F)cc3)c2n1 (configuration not stated)	-1.55	-1.07
CC12COC3(C(N)=O)CC1CCC32C (configuration not stated)	-0.52	·
O=C(NCc1cccs1)C1CCN(c2nnc(N3CCCC3=O)s2)CC1	-2.06	-1.64
COc1cc(Cl)c(C)cc1N1CC(O)=C(c2nc3ccccc3n2C)C1=N	-0.58	0.72
CS(=O)(=O)NCCc1ccc(S(N)(=O)=O)cc1	-1.6	2.68
CCCS(=O)(=O)N1CCN(C(=O)c2cc(-c3cccs3)[nH]n2)CC1	·	0.79
COC(=O)CNC(=O)c1cccnc1Sc1ccc(Cl)cc1	-0.72	·
Cc1nn(CC(=O)NC2CC2)c(=O)c2cc3sccc3n12	-2.18	·
CCCCCN(CCS(=O)(=O)N1CCNCC1)S(=O)(=O)c1ccc(Br)cc1	·	1.79
O=C(c1ccco1)N1CCN(C2CC(=O)N(c3cccc(Cl)c3)C2=O)CC1 (configuration not stated)	-0.72	0.64
Cc1ccc(C(=O)c2cc3ccccc3o2)cc1C	-0.47	0.1
Cc1ccccc1CSc1nnc(-c2ccccc2Cl)o1	-0.46	0.47
FC(F)(F)c1ccc(-n2ccnc2)nc1	-3	·
Cc1ccc(C)c(Cn2cccc2CNC(=O)NCC2CCCO2)c1 (configuration not stated)	·	0.02
Cc1ccc(CNS(=O)(=O)c2cc(-c3n[nH]c(=O)c4c3CCCC4)ccc2C)cc1	0.01	1.48
Fc1ccccc1-n1ncc2c1ncn1nc(-c3ccncc3)nc21	-1.49	2.47
Cn1c(NCCCO)nc2c1c(=O)n(Cc1ccccc1F)c(=O)n2C	-0.85	-0.66
Cn1ccnc1Sc1cnc(=S)[nH]c1-c1ccc(Cl)cc1	-1.2	·
CSc1cccc(NC(=O)CC(C)S(=O)(=O)c2ccc3c(c2)CCN3C(C)=O)c1 (configuration not stated)	·	0.61
Cc1ccccc1Cn1c(C)c(C2=CCN(S(=O)(=O)c3cn(C)cn3)CC2)c2ccccc21	·	-1.74
CCC(C)N1CC23C=CC(O2)C(C(=O)OC(C)C)C3C1=O (configuration not stated)	0.25	0.29
SMILES	CDC25B CDK2 inh	TAR Tat displ
CCc1nn2c(=O)cc(COc3ccc(Cl)cc3)nc2s1	-1.78	1.81
CCCCOc1ncnc2c1sc1nc3c(cc12)COC(C)(C)C3	-1.54	-0.08
O=C(Nc1cnc2sc3cc(F)ccc3n2c1=O)c1ccccc1	0.19	-0.39
Cn1c(SCC(=O)Nc2ccc3c(c2)OCO3)ncc(C(=O)Nc2ccccc2)c1=O	·	1.07
Cc1cc(Cl)ccc1Nc1c(-c2ccc3c(c2)OCC(=O)N3)c(=O)c1=O	·	-0.23
O=C1C(=O)N(CCCN2CCOCC2)C(c2ccc(F)cc2)/C1=C(\O)c1ccc(F)cc1 (configuration not stated)	-0.93	-0.23
COc1ccccc1-c1nc(SCc2cc(=O)n3nc(C)sc3n2)n[nH]1	·	-0.83
Cn1c2ccccc2c2cc([N+](=O)[O-])ccc21	-0.36	·
Cc1cc(C(=O)Nc2sc3c(c2C(N)=O)CCCC3)no1	-0.05	·
CCc1nc2ccccc2n1CCCOc1ccccc1	0.08	0.15
CC1(C)COC(c2cccn2Cc2ccc(F)cc2)=N1	-2.35	0.45
CCc1ccc(NS(=O)(=O)c2cc3c4c(c2)C(C)C(=O)N4CCC3)cc1 (configuration not stated)	·	1.66
O=C(NCc1ccc2c(c1)OCO2)c1ccc2c(c1)N(Cc1ccc(F)cc1)C(=O)CS2	-1.5	·
COc1ccc(C2C3=C(CC(C)(C)CC3=O)Nc3cc(OC)cc(OC)c32)cc1 (configuration not stated)	-1.62	1.11
O=S1(=O)N=C(Nc2cccnc2)c2ccccc21	-1.55	-0.36
CC1(C)Cc2c(c(N3CCOCC3)nc3sc4c(NCC5CCCO5)ncnc4c23)CO1 (configuration not stated)	-0.8	0.93
Cc1nc2ncnn2c(C)c1CCC(=O)NC1CCCC1	-0.71	2.76
CN(CCO)c1nc2cc(Cl)ccc2s1	0.51	·
CCCCNC(=O)Cn1cnc2sc(C)c(S(=O)(=O)N3CC(C)CC(C)C3)c2c1=O (configuration not stated)	1.51	·
CN(C)S(=O)(=O)c1ccc2c(c1)N(CC(=O)N1CCN(c3ccccc3F)CC1)CCS2	·	-1.2
O=c1[nH]c(CSc2ccccn2)nc2c1oc1ccccc12	0.26	·
CCCCn1c(Oc2ccccc2Cl)nc2c1c(=O)n(C)c(=O)n2C	-0.55	-0.67
COc1ccc(CC(=O)NNC(=S)NCC2CC2)cc1OC	-1.43	·
COc1ccc(N2CCN(c3ncnc4c3cnn4-c3cccc(Cl)c3)CC2)cc1	·	-1.93
Nc1nonc1C(=O)NCCNCc1ccc(-c2ccccc2)o1	-1.89	-0.64

Five records drawn at random from the list so far:
SMILES	CDC25B CDK2 inh	TAR Tat displ
Cc1nc2ncnn2c(C)c1CCC(=O)NC1CCCC1	-0.71	2.76
O=c1[nH]c(CSc2ccccn2)nc2c1oc1ccccc12	0.26	·
CCCCn1c(Oc2ccccc2Cl)nc2c1c(=O)n(C)c(=O)n2C	-0.55	-0.67
CN(CCO)c1nc2cc(Cl)ccc2s1	0.51	·
O=C(Nc1cnc2sc3cc(F)ccc3n2c1=O)c1ccccc1	0.19	-0.39

At a glance, part of the list above.
SMILES	CDC25B CDK2 inh	TAR Tat displ
CCCCNC(=O)Cn1cnc2sc(C)c(S(=O)(=O)N3CC(C)CC(C)C3)c2c1=O (configuration not stated)	1.51	·
CN(C)S(=O)(=O)c1ccc2c(c1)N(CC(=O)N1CCN(c3ccccc3F)CC1)CCS2	·	-1.2
O=c1[nH]c(CSc2ccccn2)nc2c1oc1ccccc12	0.26	·
CCCCn1c(Oc2ccccc2Cl)nc2c1c(=O)n(C)c(=O)n2C	-0.55	-0.67
COc1ccc(CC(=O)NNC(=S)NCC2CC2)cc1OC	-1.43	·
COc1ccc(N2CCN(c3ncnc4c3cnn4-c3cccc(Cl)c3)CC2)cc1	·	-1.93
Nc1nonc1C(=O)NCCNCc1ccc(-c2ccccc2)o1	-1.89	-0.64

(list continues)
SMILES	CDC25B CDK2 inh	TAR Tat displ
CC1=C(c2ccc(F)cc2)S(=O)(=O)NC1=NCC1CCCO1 (configuration not stated)	·	0.38
COc1ccc(OC)c(NS(=O)(=O)c2ccc(Cl)cc2)c1	-1.8	0.22
O=C(Nc1nccs1)C(=O)c1c(-c2ccccc2)cc2ccccn12	-0.51	0.36
COc1cc(C2Nc3ccccc3-c3nc4ccccc4n32)cc(OC)c1OC (configuration not stated)	-0.07	·
CCOC(=O)CCC(=O)Nc1sc2c(c1C(=O)OC)CCCC2	-2.85	0.31
Cc1ccc(-n2ncc3c(NCc4ccco4)ncnc32)cc1Cl	·	-0.03
Cc1cccc(C(=O)Nc2cnc3oc(-c4ccc(C(C)C)cc4)nn3c2=O)c1	·	1.26
C=CCSc1ncc(Cl)c(C(=O)Nc2sc3c(c2C(N)=O)CCCC3)n1	0.19	0.11
COc1ccc(C(=O)Cn2c3ccccc3n3nc(-c4ccco4)nc23)cc1	-5.39	7.1*
COC(=O)C1C(=O)C2=C(CC1C)NC(C)=C(C(=O)OC1CCCC1)C2c1ccccc1F (configuration not stated)	-0.19	-0.18
CN(CCCNc1ncnc2onc(-c3ccc(Cl)cc3)c12)Cc1ccccc1	-2.73	-0.57
Clc1ccccc1N=C1SCCS1	-0.05	·
COc1ccc2c(CCNC(=O)NC3CCCCC3)c[nH]c2c1	0.38	1.82
CC(=O)Oc1ccccc1C(=O)Oc1cccc(CO[N+](=O)[O-])c1	·	-0.77
Cc1nccnc1-c1ccnn1S(=O)(=O)c1ccccc1	-1.32	·
O=C(NC(=O)c1c(Cl)cccc1Cl)Nc1c(F)cc(F)cc1Br	0.12	·
CCc1cc2c3c([nH]c2cc1S(=O)(=O)Nc1ccc(F)cc1)CC(C)(C)CC3=O	·	2.64
COC(=O)CN1C(c2ccccc2O)Nc2ccc(Br)cc2C1c1ccccc1 (configuration not stated)	-0.42	0.68
O=C(Nc1cccnc1)c1nn(-c2cccc(Cl)c2)ccc1=O	-1.19	0.83
CC1Cc2ccccc2N1S(=O)(=O)c1ccc2c(c1)CCN2 (configuration not stated)	·	0.76
N#CC1c2ccccc2C=CN1C(=O)C1=CCCCC1 (configuration not stated)	1.24	1.28
Cc1nn(CC(=O)NCc2ccccn2)c(=O)c2cc3sccc3n12	-1.37	-0.82
Fc1ccc(CN2CCc3nc(N4CCOCC4)ncc3C2)c(F)c1	·	0.96
CCCc1nnc2sc(NC(=O)CC)nn12	-1.96	1.77
COc1ccc(S(=O)(=O)N(CCC#N)C2CCc3ccccc32)cc1OC (configuration not stated)	-0.32	·
SMILES	CDC25B CDK2 inh	TAR Tat displ
CCOC(=O)C1=C(C)Nc2nnnn2C1c1cc(Br)ccc1OCC (configuration not stated)	1.97	0.97
CSc1nc(N)nc(-c2ccncc2)n1	0.63	·
CN1CCN(CCCNC(=O)c2ccc(N3CCc4ccccc43)s2)CC1	·	1.22
O=c1c(NCc2ccccn2)c(-c2ccccc2)c1=O	·	-2.55
Cc1nc(C)c(-c2ccnc(-c3ccc(C(F)(F)F)cc3)n2)o1	-2.78	·
CC1CC(C(F)(F)F)n2nc(C(=O)O)cc2N1 (configuration not stated)	·	0.89
COc1ccccc1NC(=O)CCc1nc(CSc2nc3ccccc3o2)no1	·	2.4
CC1CCc2c(sc3ncn(CC(=O)O)c(=O)c23)C1 (configuration not stated)	0.01	0.81
O=C(CCc1nnc2ccc(NCc3ccc(F)cc3)nn12)NC1CCCCC1	·	1.59
N#C/C(=C\c1cccn1-c1ccc(OC(F)(F)F)cc1)S(=O)(=O)c1ccccc1	0.91	·
CC1(C)Cc2nc3oc4c(SCc5ccccc5Cl)ncnc4c3cc2CO1	·	0.32
OCCCNc1ncnc2scc(-c3ccccc3)c12	·	1.54
O=c1c(-c2ccccc2)c(C(F)(F)F)oc2c(CN3CCOCC3)c(O)ccc12	-0.3	3.23
Cc1cc(C)cc(NC(=O)CSc2nncn3c2cc2sccc23)c1	·	4.37
Cc1cc(SCC(=O)O)nc2ccccc12	-0.1	0.56
Cc1ccc(CN(C(=O)c2cc(-c3ccc(C)c(F)c3)on2)C2CCS(=O)(=O)C2)cc1 (configuration not stated)	-0.58	0.74
CC(=O)N[C@@H](CC(C)C)C(=O)O	·	2.65
N#CC1=C(N)Oc2n[nH]c(-c3ccccc3)c2C12C(=O)Nc1ccc(Cl)cc12 (configuration not stated)	-0.74	0.68
Cc1ccc2c(c1)c(C)c(C)n2CC(O)CN1CCOCC1 (configuration not stated)	-2.73	-0.47
Nc1nc(-c2ccccc2Cl)nn1C(=O)c1ccco1	-0.51	0.71

The order is random; 0.9% or so of the library scored in one or more.
